Screening data deposited in PubChem BioAssay by National Center for Advancing Translational Sciences (NCATS).
HSD17B inh: inhibitors of human HSD17B10 dehydrogenase | recombinant HSD17B10, NADH fluorescence kinetic; many of its hits are not listed in these tables | Potency, µM (series often up to 57.1 µM), for the others: at the top dose activity change, negative = inhibition, usual class: inhibitors | hit rate 7.6% among 75,000 | AID 893; active = well fitted inhibition curve with a large enough effect; inconclusive = small, poorly fitted or top-dose-only effect; inactive = no such curve, though single readings can be large or run the other way;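 note: the protocol describes HADH2 (HSD17B10) and not the HSD17B4 of the title; nearly all actives have a fitted effect of over 70% in size; most hits overshoot -100% by far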
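His-tagged E. coli-expressed HADH2 at 20 nM in 100 mM Tris-HCl pH 9.0 with 0.01 % Tween-20, preincubated 15 min with compound at room temperature. Reaction with 1 mM NAD+ and 90 uM beta-hydroxybutyryl coenzyme A; NADH fluorescence (360/450 nm) read kinetically over 4 min, last minus first point.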
* marks the source's active call; other numbers are inactive results; ? = inconclusive; & = joins results of further samples; [ ] = dose if it differs, or a comment. % is set by controls: 0 for no effect and ±100 for the full control effect; potency is the fitted concentration of half-maximal effect. Some of the compounds tested (hit frequency here may not be typical).

CC(=O)Nc1ccccc1
  HSD17B inh: -3%
CCCOC(=O)c1ccc(O)cc1
  HSD17B inh: -1%&4%
CC1CCC(C(C)C)C(=O)C1 (stereo not given)
  HSD17B inh: -2%
CCCCNC(=O)[C@@H]1Cc2ccccc2N1C(=O)[C@H](N)CC
  HSD17B inh: -18%
Cn1c(=O)c2c(ncn2CCO)n(C)c1=O
  HSD17B inh: 5%
CC1CC2C3CC(F)C4=CC(=O)C=C[C@@]4(C)[C@@]3(F)C(O)C[C@]2(C)[C@]1(O)C(=O)COC(=O)C(C)(C)C (stereo not given in full)
  HSD17B inh: -1%
CCC(=O)O[C@@]1(C(=O)SCF)[C@@H](C)C[C@H]2[C@@H]3C[C@@H](F)C4=CC(=O)C=C[C@@]4(C)[C@]3(F)[C@@H](O)C[C@]21C
  HSD17B inh: 5%[25.6 µM]
COc1ccc2ccc(=O)oc2c1
  HSD17B inh: 25µM*
Cc1cccc(C)c1NC(=O)C1CCCCN1C (stereo not given)
  HSD17B inh: 3%
COc1ccc(-c2cc(=O)c3c(O)c(OC)c(OC)c(OC)c3o2)cc1OC
  HSD17B inh: 2%
COc1cc([C@@H]2Oc3cc([C@H]4Oc5cc(O)cc(O)c5C(=O)[C@H]4O)ccc3O[C@H]2CO)ccc1O
  HSD17B inh: ?
CCOC(=O)NNc1nncc2ccccc12
  HSD17B inh: 3%
CCCCOc1ccc(CC(=O)NO)cc1
  HSD17B inh: -1%
Nc1ncnc2nc[nH]c12
  HSD17B inh: -3%
COc1ccc(/C=C\C(=O)Nc2ccccc2C(=O)O)cc1OC
  HSD17B inh: -28%
Cc1cc(C)cc(OCC2CNC(=O)O2)c1 (stereo not given)
  HSD17B inh: 4%
COc1cc([C@H]2Oc3cc([C@H]4Oc5cc(O)cc(O)c5C(=O)[C@@H]4O)ccc3O[C@@H]2CO)ccc1O
  HSD17B inh: 32µM*
Nc1c2c(nc3ccccc13)CCCC2O (stereo not given)
  HSD17B inh: ?

3 entries from above, ordered by SMILES length, ascending.
Nc1ncnc2nc[nH]c12
  HSD17B inh: -3%
Cn1c(=O)c2c(ncn2CCO)n(C)c1=O
  HSD17B inh: 5%
CCCCNC(=O)[C@@H]1Cc2ccccc2N1C(=O)[C@H](N)CC
  HSD17B inh: -18%

Pulled by compound from the entries so far (5):
Cn1c(=O)c2c(ncn2CCO)n(C)c1=O
  HSD17B inh: 5%
Cc1cc(C)cc(OCC2CNC(=O)O2)c1 (stereo not given)
  HSD17B inh: 4%
Nc1c2c(nc3ccccc13)CCCC2O (stereo not given)
  HSD17B inh: ?
CCCOC(=O)c1ccc(O)cc1
  HSD17B inh: -1%&4%
CCCCOc1ccc(CC(=O)NO)cc1
  HSD17B inh: -1%
